VDR inhibitor: Inhibitors of the vitamin D receptor (VDR): qHTS; Vitamin D3 receptor (Homo sapiens), P11473; VDR-SRC2-3 peptide fluorescence polarization, 2 h; Potency, µM, inactives show max response, negative = inhibition, usual class: inhibitors; 400,000 compounds, 0.93% hits; AID 504847, 2011; active = well fitted inhibition curve with a large enough effect; inconclusive = small, poorly fitted or top-dose-only effect, or another doubt; inactive = no such curve, though single readings can be large or run the other way; note: series mostly up to about 120 µM
Target sequence (P11473 whole entry, looked up): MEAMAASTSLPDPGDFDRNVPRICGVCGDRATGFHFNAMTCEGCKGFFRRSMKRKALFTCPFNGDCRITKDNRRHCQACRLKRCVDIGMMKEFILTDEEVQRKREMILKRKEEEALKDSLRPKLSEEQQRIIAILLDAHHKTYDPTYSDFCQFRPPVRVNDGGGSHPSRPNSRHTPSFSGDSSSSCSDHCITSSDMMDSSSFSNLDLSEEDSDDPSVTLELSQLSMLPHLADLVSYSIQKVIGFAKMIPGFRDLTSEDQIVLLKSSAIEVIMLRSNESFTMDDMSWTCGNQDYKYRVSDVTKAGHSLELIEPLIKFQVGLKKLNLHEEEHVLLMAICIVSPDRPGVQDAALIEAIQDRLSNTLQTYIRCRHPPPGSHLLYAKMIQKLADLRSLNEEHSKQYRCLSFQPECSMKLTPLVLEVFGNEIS
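FP read-out; VDR + SRC2-3 coactivator peptide; 23 nl compound by pintool; 2 h RT incubation; reagents held at 4 deg C, protected from light.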
* marks the source's active call; other numbers are inactive results; ? = inconclusive; & = joins results of further samples; [ ] = remark or other dose. % is set by controls: 0 for no effect and ±100 for the full control effect; potency is the fitted concentration of half-maximal effect.

SMILES	VDR inhibitor
COC(=O)c1cc(NC(=O)C(C)c2ccc(CC(C)C)cc2)ccc1O (stereo not given)	15%
CCn1c(O)c(/C=N/N=C2CCCCC2)c2cc(C3=NNC(=O)CC3)ccc21	-16%
COc1cc(-c2noc(-c3ccc(N(C)C)c([N+](=O)[O-])c3)n2)cc(OC)c1OC	-3%
COc1ccc2c(c1)C=C(C(=O)NCc1ccc(Cl)cc1)CO2	13%
Cc1ccccc1NC(=O)c1ccc(Cl)c(S(=O)(=O)N2CCCCCC2)c1	7%
CCCc1cc(=O)[nH]c(SCC(=O)N(CC)C2CCS(=O)(=O)C2)n1 (stereo not given)	7%
NS(=O)(=O)c1cccc(NC(=O)CNC(=O)CC23CC4CC(CC(C4)C2)C3)c1	-2%
COc1ccc(/C=C/C(=O)Nc2ccccc2C(=O)NCC(c2ccc(OC)cc2)N(C)C)cc1 (stereo not given)	8%
CC(C)n1nc(C(=O)Nc2ccccc2N2CCOCC2)c2ccccc2c1=O	-8%
O=C(NNC(=O)c1ccccc1F)c1cccc(Cl)c1	18%
O=S(=O)(c1ccccc1F)N1CCc2ccccc2C1	29%
COc1ccc(C)cc1NC(=O)CCCN1C(=O)C2CC=CCC2C1=O (stereo not given)	-3%
CCN(CC)CCNc1nc(-c2ccco2)c2c(c1C#N)CC(C)(C)OC2	1%
Cc1ccc(CNC(=O)c2nc3nc(C)cc(C)n3n2)cc1	-7%
CCCN(CC#CC(O)(c1ccccc1)c1cccnc1)CCC (stereo not given)	-16%
Cc1cc(Cl)c(O)c(-n2nc3ccccc3n2)c1	-25%
Cc1ccccc1CC1(CO)CCCN(Cc2ccc3c(c2)OCCO3)C1 (stereo not given)	-5%
Cc1ccccc1/C=N/N1C(=O)CSC1=S	-10%
O=C(NCc1cccs1)c1ccc(Cn2c(SCc3cccc(F)c3)nc3cccnc32)cc1	0%
COc1cc(CN2CC(=O)N(c3cc(Cl)ccc3C)C2=S)cc(OC)c1OC	?
Cc1ccccc1C(=O)Nc1nnc(-c2ccco2)s1	5%
O=C(OCc1nnc(-c2ccccc2)o1)c1cc(=O)[nH]c2ccccc12	3%
CSc1nc(C(=O)N2CCCC(N3CCN(c4ccccc4C)CC3)C2)cs1 (stereo not given)	-2%
COc1ccc(/C=C/C(=O)CC(O)(c2ccccc2)C(F)(F)F)cc1 (stereo not given)	35µM*
Cn1cc(-c2cc3n(n2)CCC(=O)N3CCCC(=O)Nc2ccc(Cl)cc2)c2ccccc21	11%

Next section.
SMILES	VDR inhibitor
CN(C)CC1CCCCC1OC(=O)c1ccc(Cl)cc1 (stereo not given)	-8%
CCNc1nc(Cl)nc(N(NC(C)=O)C(C)C)n1	8%
O=C(NN1C(=O)/C(=C/C=C/c2ccco2)SC1=S)c1ccccc1O	46%[activator]
CCCCC(Nc1ncnc2ccccc12)C(=O)O (stereo not given)	7%
COc1cccc(-c2nnc(SCc3ccccn3)n2C)c1	?
Cc1cn(C)c(CC(=O)NCc2ccccc2)c1C(=O)O	12%
O=C(O)c1ccc2cccnc2n1	9%
Cc1cc2c(c(=O)n1CCc1ccccc1)C(c1ccco1)C(C#N)=C(N)O2 (stereo not given)	-4%
COc1ccc(Cl)cc1N(CC(=O)Nc1ccc2c(c1)OCO2)S(C)(=O)=O	-4%
CCOC(CNc1ncnc2sc(-c3ccccc3)cc12)OCC	18%
C=C(C)C1CC=C(C)/C(=N\NC(=O)CNc2ccccc2OC)C1 (stereo not given)	8%
O=S(=O)(Nc1cccc2cccnc12)c1ccc(S(=O)(=O)N2CCCC2)cc1	-3%
Cc1ccccc1NC(=O)N1C2CCCC1CC(NC(=O)C1CC1)C2 (stereo not given)	2%
Cn1nc(C(C)(C)C)cc1C(=O)NCc1cc(F)cc2c1OCOC2	-15%
O=C(Nc1ccccc1C(=O)O)c1ccc(N2C(=O)C3CC=CCC3C2=O)cc1 (stereo not given)	-11%
COc1ccc(C)cc1NC(=O)C1CC(=O)OC12CCCCC2 (stereo not given)	4%
O=C(Nc1c(C(=O)N2CCC(N3CCCCC3)CC2)oc2ccccc12)c1ccc(F)cc1	-4%
COc1ccccc1CC1(C)NC(=O)N(CC(=O)Nc2cc(C)on2)C1=O (stereo not given)	17%
O=S(=O)(c1cccc2cccnc12)N1CCN(c2ccccn2)CC1	13%
COc1ccc(NC(C)=O)cc1NC(=O)CSc1nnc(-c2cccnc2)n1C	6%
CC(C)(C)c1ccc(OCC(=O)NC2CCS(=O)(=O)C2)cc1 (stereo not given)	3%
CC(OC(=O)c1nc(Cl)ccc1Cl)C(=O)NC1CCCCC1C (stereo not given)	-12%
O=C(CSc1cccc(C(F)(F)F)c1)N1CCN(S(=O)(=O)c2ccccc2)CC1	-1%
COc1ccc(CN2CCNC(=O)C2CC(=O)NCC(C)(C)N2CCOCC2)cc1C (stereo not given)	-3%
COc1ccc(OC2CCN(S(=O)(=O)c3ccc(OC)c(OC)c3)CC2)cc1	4%

Following part.
SMILES	VDR inhibitor
COc1ccc(CNC(=O)COC(=O)c2ccco2)cc1	-14%
Cc1cc(Sc2ncnc(N)c2[N+](=O)[O-])ncn1	?
COc1ccc(Cl)cc1NC(=O)Cn1c(=O)oc2cc(S(=O)(=O)N3CCCCCC3)ccc21	6%
CCOc1ccc(Nc2nc(C)cc(C)c2C#N)cc1	5%
O=C(O)/C=C1\CCCc2ccccc2[C@H]1O	2%
COc1ccccc1C1N=C(c2ccccc2C)NO1 (stereo not given)	-15%
Cc1ccc(C(=O)NCC(=O)NCC(c2cccs2)N2CCOCC2)cc1C (stereo not given)	-10%
O=C(C1CCCN(S(=O)(=O)c2ccc(F)cc2)C1)N1CCCCC1 (stereo not given)	25%
CCOc1c2ccc(C(=O)NCCc3ccc(C)cc3)cc2nn1CC	13%
COc1ccccc1CNC(=O)COC(=O)c1ccc(N2CCCC2=O)cc1	1%
O=C(c1ccccc1)c1ccc2nc(Nc3ccccc3)c3nncn3c2c1	4%
Cc1cccc(C)c1NC(=O)CSc1ncnc2[nH]ncc12	-6%
CCOc1ccc(C2=C(C=Nc3c(C)n(C)n(-c4ccccc4)c3=O)C(c3ccc(F)cc3)c3ccccc3O2)cc1 (stereo not given)	6%
Cc1nnc(NCCc2ccccc2)[nH]c1=O	-4%
S=C(Nc1ccc(Nc2ccccc2)cc1)N1CCN(c2ncccn2)CC1	-2%
COCCCNC(=O)CS(=O)Cc1nc(-c2cccc(C)c2)oc1C (stereo not given)	3%
Cc1cccn2c(=O)c(C(=O)NCc3ccccc3Cl)c(O)nc12	-5%
COc1ccc(C(=O)O)cc1F	12%
COc1ccc(-c2cc(=O)oc3cc(OC(C)C(=O)NCCCn4ccnc4)ccc23)cc1 (stereo not given)	1%
COc1ccc(Cl)cc1NS(=O)(=O)c1cccc(C(=O)NCC(C)(C)N2CCOCC2)c1	4%
O=C(Nc1cccc(Cl)c1)N1CC2CCCN2c2ccccc21 (stereo not given)	-3%
C[C@H]1CN=C(Nc2ccccc2)N1CC1CCCCCC1	-3%
CC(C(=O)Nc1ccc(C#N)cc1)N(C)CC(=O)Nc1cccc(F)c1 (stereo not given)	-1%
C[C@@H]1C(=O)CC2C(C)(C)CCC[C@]2(C)[C@@]1(O)CCc1ccoc1 (stereo not given in full)	0%
OCc1nc2ccccc2n1Cc1ccc(Cl)cc1	10%

(further entries)
SMILES	VDR inhibitor
CCN(CC)c1ccc(NC(=O)OC)cc1	-12%
CC1CCN(S(=O)(=O)c2ccc3[nH]c(=O)[nH]c3c2)CC1	-5%
Cc1cccc(NC(=O)CCCN2C(=O)C3CC=CCC3C2=O)c1 (stereo not given)	50%[activator]
Cc1nn(Cc2ccccc2)c(C)c1C(=O)OCC(=O)c1cc(C)n(CC(F)(F)F)c1C	15%
O=c1[nH]n(-c2ccc(F)cc2)c2ncccc12	-4%
Cc1cc(C(=O)COC(=O)CNC(=O)c2ccc(F)cc2)c(C)n1Cc1ccco1	0%
CC(=O)N(c1ccc(N(C(C)=O)S(=O)(=O)c2ccccc2)cc1)S(=O)(=O)c1ccccc1	4%
NC(=O)C1CCN(c2oc(-c3cccs3)nc2S(=O)(=O)c2ccc(Br)cc2)CC1	8%
CC1CCN(c2ccc(N3C(=O)C4CCCCC4C3=O)cc2[N+](=O)[O-])CC1 (stereo not given)	-13%
Cc1nc2ccc(Nc3ccncc3)cc2s1	-12%
CCc1cc(C(=O)Nc2ncccc2O)sc1C	6%
CCCCNc1cc(F)nc(N)n1	-13%
Cc1ccc(C(=O)C2=C(O)C(=O)N(c3ncccn3)C2c2ccc(Cl)cc2)o1 (stereo not given)	-1%
COc1ccc(C)cc1S(=O)(=O)Nc1cccc(Cl)c1Cl	-13%
Cc1cc(C(=O)NCc2ccc(Cl)cc2)n(-c2ccccc2)n1	?
Cc1ccccc1C1C(C#N)=C2N=C(N)c3c(sc4c3CCCCC4)N2C2=C1C(=O)CC(C)(C)C2 (stereo not given)	-3%
CCCc1n[nH]c(=O)c2c1nnn2Cc1ccccc1F	-12%
CCN=C(Nc1ccc2c(c1)OCO2)SC1CC(=O)N(c2ccccc2F)C1=O (stereo not given)	15%
Cc1ccc(S(=O)(=O)N2CCOCC2)cc1NC(=O)c1cc([N+](=O)[O-])ccc1N1CCOCC1	7%
Cc1ccc(NC(=O)c2cnc3cc(C)ccn3c2=O)c(C)c1	1%
NC(=O)c1c(NC(=O)c2ccc(N3C(=O)CCC3=O)cc2)sc2c1CCCC2	-27%
CCN(CC(=O)Nc1cc(Cl)ccc1C)C(=O)CCOc1ccc(C)cc1	1%
COc1ccc(NC(=O)NCCCCc2ccccc2)cc1OC	-11%
Cc1cccc(Nc2cc(C)c3c(O)cccc3n2)c1C	12%
O=S(=O)(c1ccccc1Cl)N1CCN(c2nc(-c3cccs3)nc3ccccc23)CC1	-18%&2%

18 successive records out of the list so far, quoted:
SMILES	VDR inhibitor
NC(=O)C1CCN(c2oc(-c3cccs3)nc2S(=O)(=O)c2ccc(Br)cc2)CC1	8%
CC1CCN(c2ccc(N3C(=O)C4CCCCC4C3=O)cc2[N+](=O)[O-])CC1 (stereo not given)	-13%
Cc1nc2ccc(Nc3ccncc3)cc2s1	-12%
CCc1cc(C(=O)Nc2ncccc2O)sc1C	6%
CCCCNc1cc(F)nc(N)n1	-13%
Cc1ccc(C(=O)C2=C(O)C(=O)N(c3ncccn3)C2c2ccc(Cl)cc2)o1 (stereo not given)	-1%
COc1ccc(C)cc1S(=O)(=O)Nc1cccc(Cl)c1Cl	-13%
Cc1cc(C(=O)NCc2ccc(Cl)cc2)n(-c2ccccc2)n1	?
Cc1ccccc1C1C(C#N)=C2N=C(N)c3c(sc4c3CCCCC4)N2C2=C1C(=O)CC(C)(C)C2 (stereo not given)	-3%
CCCc1n[nH]c(=O)c2c1nnn2Cc1ccccc1F	-12%
CCN=C(Nc1ccc2c(c1)OCO2)SC1CC(=O)N(c2ccccc2F)C1=O (stereo not given)	15%
Cc1ccc(S(=O)(=O)N2CCOCC2)cc1NC(=O)c1cc([N+](=O)[O-])ccc1N1CCOCC1	7%
Cc1ccc(NC(=O)c2cnc3cc(C)ccn3c2=O)c(C)c1	1%
NC(=O)c1c(NC(=O)c2ccc(N3C(=O)CCC3=O)cc2)sc2c1CCCC2	-27%
CCN(CC(=O)Nc1cc(Cl)ccc1C)C(=O)CCOc1ccc(C)cc1	1%
COc1ccc(NC(=O)NCCCCc2ccccc2)cc1OC	-11%
Cc1cccc(Nc2cc(C)c3c(O)cccc3n2)c1C	12%
O=S(=O)(c1ccccc1Cl)N1CCN(c2nc(-c3cccs3)nc3ccccc23)CC1	-18%&2%

Next section.
SMILES	VDR inhibitor
CO/N=C/NC(=O)c1c(OC)ccnc1Oc1ccc(Cl)cc1	2%
CC(C)N1CCN(Cc2cn[nH]c2C2CCCCC2)CC1CCO (stereo not given)	4%
CCOC(=O)C1(S(=O)(=O)c2ccccc2)CCN(Cc2ccc(Cl)cc2)CC1	-4%
Cn1c(=O)c2c([nH]c(=S)n2Cc2ccc(Cl)cc2)n(C)c1=O	79µM*
COc1ccc(Cl)cc1/C=C/c1ccc2cccc(O)c2n1	8%
COc1ccc(NC(=O)c2cc(C)cc(C)c2)cc1[N+](=O)[O-]	-13%
Cc1cc(C)n(-c2nc3ccccc3[nH]c2=O)n1	-23%
O=[N+]([O-])c1cnccc1NC1CCCCC1	-16%
COc1cccc(C(=O)NCC(=O)OCc2cc(=O)n3c(C)csc3n2)c1	4%
COc1ccc(NC(=O)C2CCN(S(=O)(=O)c3c(C)noc3C)CC2)cc1OC	-6%
CCOC(=O)C1CCCCN1Cc1cccc(Oc2ccccc2)c1 (stereo not given)	20%
Cn1c(COc2ccccc2)nnc1SCC(=O)NCc1ccccc1	6%
Cc1nc2ccccc2c(=O)n1/N=C/c1c(O)ccc2ccccc12	-16%
Cc1ccccc1CN(c1ccc(C(=O)N2CCN(C)CC2)cc1)S(C)(=O)=O	-10%
Cc1ccc(C(=O)NNC(=O)C2CCN(c3nc(C)cc(C)n3)CC2)cc1	-7%
COc1ccc(CCNC(=O)C(=O)Nc2ccc(C)cc2)cc1OC	1%
O=C(COc1ccccc1/C=C\c1nc(O)c([N+](=O)[O-])c(=O)[nH]1)Nc1ccccc1	?
COc1ccc(N2CCN(C(=O)C(Cc3ccccc3)NC(=O)c3ccccc3)CC2)cc1 (stereo not given)	-8%
O=C(NCc1ccco1)C1CCN(C(=O)N2CCOc3ccccc32)CC1	14%
CCCc1nc2oc3c(NCCN(C)C)ncnc3c2c2c1CCCC2	-4%
CC(=O)c1c(C)[nH]c(C(=O)COC(=O)c2cc(C)oc2C)c1C	9%

Screening results: PubChem BioAssay, National Center for Advancing Translational Sciences (NCATS)

An excerpt (hit frequency here may not be typical).
